Sfp PPTase inh: Sfp phosphopantetheinyl transferase inhibition; Q9F4F7; Biochemical Sfp PPTase activity, qHTS; Potency, µM, for inactives: max response, negative = inhibition, hits mostly inhibitors; AID 1490; 310,000 compounds, 3.5% hits; active means well fitted inhibition curve with a large enough effect; inconclusive means small, poorly fitted or top-dose-only effect, or another doubt; inactive means no such curve, though single readings can be large or run the other way;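 further: the enzyme is Sfp with the accession as filed and its product quenches rhodamine fluorescence; potency means the concentration at half of the fitted maximal effect; 0% = enzyme reaction without inhibitor and -100% = no enzyme wells; top concentration of the series not given in the record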
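After 15 min at room temperature with compound, 15 nM Sfp received 5 uM rhodamine-CoA plus 12.5 uM BHQ-2-ybbR (50 mM Hepes pH 7.6, 10 mM MgCl2). Rate came from the fluorescence difference over 30 min, ex 525/em 598 nm.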
D2 potentiator: potentiates the human D2 dopamine receptor allosterically. P14416. DiscoveRx D2 beta-arrestin cells, luminescence, 90 min; 100% = 57 uM dopamine signal. potentiation, % (test concentration not listed). 360,000 compounds, 0.23% hits. AID 624464; active = potentiation of 50% or more; inconclusive = 30% to 50%; inactive = 30% or less;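 further: compound concentration not given in the record; tested on top of an EC20 dose of dopamine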
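PathHunter D2 cells, attached overnight at 37 deg C, received compound in DMSO plus dopamine at EC20 (50 nM final) for 90 min at 37 deg C. Beta-arrestin recruitment was read as luminescence after 1 h with detection reagent at ambient temperature.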
TRPV1 potentiator: enhances activation of the human vanilloid receptor TRPV1 | Q8NER1 | TRPV1-expressing cells, Fluo-8 calcium influx, capsaicin EC20 potentiation; host cell line not named in the record; control for the full effect not named in the record | potentiation, % at 8.33 µM | 320,000 compounds, 0.02% hits | AID 540277; active means potentiation above 80%; inconclusive means 30% to 80%; inactive means below 30%; further: 0% is about no effect
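TRPV1-expressing cells were cultured overnight at 35.5C and loaded with Fluo-8 calcium dye for 40 to 90 min at room temperature. After a 10 s baseline, compound was added and calcium influx was read kinetically for 3 min (ex 480/em 520 nm).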
D2 agonist: activates the human D2 dopamine receptor; activation, % (no concentration beside the values); AID 624465; 360,000 compounds, 0.084% hits; DiscoveRx PathHunter D2 beta-arrestin, luminescence, 90 min; 100% = 57 uM dopamine signal; P14416; in the data active = activation above about 40%; inconclusive = about 15% to 40%; inactive = below about 15%; further: compound concentration not given in the record; the text of the record calls up to 30% inactive
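Agonist mode: compounds alone added to overnight-plated D2 PathHunter cells for 90 min at 37 C, with 57 uM final dopamine (EC100) defining full response. Beta-arrestin recruitment detected by chemiluminescent reagent, read after 1 h at ambient temperature.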
CtBP-E1A blk: CtBP/E1A binding inhibition. AID 651724. 340,000 compounds, 0.49% hits. activity change, % (no concentration beside the values). AlphaScreen GST-E1A/His-CtBP binding, 1536-well; active compounds read low; control for the full effect not named in the record; in the data active means activity change below about -65%; inconclusive means about -30% to -65%; inactive means above about -30%; further: on the % scale 0 is the no-effect control and ±100 the full control effect
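In 5 uL wells, 23 nL compound meets equimolar GST-E1A and His-CtBP (5X stock 125 nM each) for 2 h, 37 °C. Beads (5X, 50 ug/mL) then 1 h, 37 °C, dark.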
Six1-Eya2 blk: inhibitors of human Six1/Eya2 interaction; AlphaScreen GST-Six1/His-Eya2 binding, biochemical; active compounds read low; control for the full effect not named in the record; activity change, % (concentration not given with the values); 360,000 compounds, 0.56% hits; in the data active = activity change below about -65%; inconclusive = about -30% to -65%; inactive = above about -30%; further: on the % scale 0 is the no-effect control and ±100 the full control effect
Target sequence (O00167 whole entry, looked up): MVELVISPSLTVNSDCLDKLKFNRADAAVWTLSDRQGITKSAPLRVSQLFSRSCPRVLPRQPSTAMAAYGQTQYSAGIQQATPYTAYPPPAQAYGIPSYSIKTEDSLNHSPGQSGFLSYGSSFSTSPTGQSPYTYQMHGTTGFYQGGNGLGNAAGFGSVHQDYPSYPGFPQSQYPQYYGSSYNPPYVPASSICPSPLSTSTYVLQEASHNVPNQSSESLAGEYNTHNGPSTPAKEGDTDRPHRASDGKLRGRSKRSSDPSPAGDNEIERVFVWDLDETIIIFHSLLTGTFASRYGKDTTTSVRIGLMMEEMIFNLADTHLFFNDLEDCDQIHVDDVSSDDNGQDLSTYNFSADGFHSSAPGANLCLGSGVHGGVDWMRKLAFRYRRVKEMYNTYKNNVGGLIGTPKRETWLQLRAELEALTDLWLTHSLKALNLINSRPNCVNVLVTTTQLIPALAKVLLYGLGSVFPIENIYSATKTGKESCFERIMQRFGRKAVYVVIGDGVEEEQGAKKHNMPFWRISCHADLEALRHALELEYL
Target sequence (Q15475 whole entry, looked up): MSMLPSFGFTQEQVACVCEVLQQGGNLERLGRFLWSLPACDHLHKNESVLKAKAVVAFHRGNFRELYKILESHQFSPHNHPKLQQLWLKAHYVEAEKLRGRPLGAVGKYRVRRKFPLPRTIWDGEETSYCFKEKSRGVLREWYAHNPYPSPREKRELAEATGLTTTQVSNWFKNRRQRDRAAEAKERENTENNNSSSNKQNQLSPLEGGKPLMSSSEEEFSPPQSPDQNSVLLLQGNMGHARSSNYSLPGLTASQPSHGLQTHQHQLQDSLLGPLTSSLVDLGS
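AlphaScreen luminescence read after one hour at 37 °C in darkness. Pin-transferred compounds met GST-Six1 and His-Eya2 protein (5X stock 250 nM/500 nM) plus glutathione donor and Ni-chelate acceptor beads (5X, 50 ug/mL).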
PINK1 expr mod: PINK1 expression modulation | PINK1 immunofluorescence, high-content cytometry, 24 h | AID 624263 | 410,000 compounds, 0.2% hits | Potency, µM (doses to about 76.6 µM), without a hit: at the highest dose activation (PINK1 increase), actives largely listed as activators; active = well fitted activation curve with a large enough effect; inconclusive = small, poorly fitted or top-dose-only effect; inactive = flat fitted curve, though single readings scatter; cell line not stated here;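 further: potency means the concentration at half of the fitted maximal effect; % of control where 0% means no effect; nearly all actives have a fitted effect of over 65% in size; a mitochondrial uncoupler was the plate control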
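Stable cell line, 250 cells/well, 12 h attachment; compounds pinned at 5 concentrations, 24 h; CCCP control. Fixed with nuclear dye, primary antibodies 12 h at 10 degrees C, secondary plus cell stain; laser-scanning cytometer read.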
* hit, by the source's call; ? = inconclusive; . = not tested or not shown; [ ] = dose if it differs, or a comment.

structure	Sfp PPTase inh	D2 potentiator	TRPV1 potentiator	D2 agonist	CtBP-E1A blk	Six1-Eya2 blk	PINK1 expr mod
S=C(Nc1ccccc1Oc1ccccc1)NC1CCCC1	5%	-4	-3	-4.7	.	-2	0.6%
O=C(COC(=O)C1=COCCO1)Nc1ccc(Oc2ccccc2)cc1	15%	-5	0	1.1	-8	-2	.
CC(C)c1ccc(C(=O)CN2C(=O)NC3(CCc4ccccc43)C2=O)cc1 (centres undefined)	.	-21	.	-2.1	-12	12	-0.7%
Cc1cc(C)n(-c2nc3c(c(=O)[nH]c(=O)n3C)n2CC(O)COc2ccc(Cl)cc2Cl)n1 (centres undefined)	6%	-18	-6	1.2	-11	5	4.1%
O=C(Nc1ccccc1C(=O)NCCCN1CCOCC1)c1ccc(F)cc1	7%	-12	-4	-0.3	-9	17	0.3%
COc1ccc2c(C)cc(SCn3nnc4ccccc4c3=O)nc2c1	13%	-12	0	2.1	2	-2	0.7%
O=C(NCc1cccnc1)c1cnc2ccccc2n1	11%	-4	2	-4.2	-1	8	-0.8%
CCn1c(=O)c(C(=O)NNC(=O)c2ccccc2)c(O)c2ccccc21	26%	8	-13	-0.1	2	-2	0.3%
O=C(NCCCN1CCOCC1)c1cc(-c2ccc(Cl)c(Cl)c2)on1	6%	-3	3	2.8	4	3	14%
CCOC(=O)c1[nH]c2ccc(F)cc2c1NC(=O)Nc1ccccc1OC	?	-2	-18	-3.7	4	0	8.4%
O=C(Nc1ccc2c(c1)OCO2)c1cc(C2CCCCN2S(=O)(=O)c2ccccc2)on1 (centres undefined)	.	-1	.	-2.1	-11	-6	0.8%
CC(C)Oc1ccc(C(=O)Nc2cc(=O)n(C)c(=O)n2C)cc1	-3%	-5	2	-1.8	-2	6	3.5%
CCC(C(=O)O/N=C(\N)c1ccc(Cl)cc1)c1ccccc1 (centres undefined)	9%	15	0	3.4	21	42	1.9%
O=c1c2ccccc2[nH]c(=S)n1CCCN1CCC(Cc2ccccc2)CC1	2%	-24	5	0.7	.	-12	3.4%
C/C(=N\NC(=O)c1nnn(-c2nonc2N)c1C(C)C)c1ccncc1	8%	-11	12	3.5	3	1	-0.1%
O=C1CN(C(=O)c2ccccc2F)C(c2ccccc2)c2cc(Cl)ccc2N1 (centres undefined)	1%	-5	-30	-3.4	.	-7	1.5%
O=C(O)CN1CCN(Cc2cccc(Cl)c2)C1=O	12%	-1	29	-4.4	3	5	1.3%
Cc1ccc2cc3c(NC(=O)CC(C)C)nn(C)c3nc2c1	1%	-18	-7	-0.1	1	-4	0.1%
O=[N+]([O-])c1cc(Cl)ccc1N1CCCC1	-2%	-7	-2	-1.7	?	?	2.0%
CS(=O)(=O)c1ccccc1C(=O)NC1CCCc2ccccc21 (centres undefined)	10%	-3	3	-1.1	0	6	-1.5%
COc1ccc(N2C(=O)CC(N3CCN(C(=O)c4ccco4)CC3)C2=O)cc1 (centres undefined)	15%	-6	1	-3.8	-1	5	-0.4%
COc1ccc(C(=O)N2CCCC2(C)C(=O)NCC(C)C)cc1C(F)(F)F (centres undefined)	.	-8	.	-5.8	2	-5	3.3%
CC(C)(C)C1CCc2c(C(=O)NNC(=O)CCC(=O)O)csc2C1 (centres undefined)	13%	-11	-2	0.4	3	-4	0.2%
CNc1oc(-c2cccs2)nc1S(=O)(=O)c1ccccc1	19%	-20	4	-3.8	-2	-20	2.0%
CC(C)(C)NS(=O)(=O)c1ccc(NC(=O)NC2CCCCC2)cc1	10%	6	1	0.9	-2	3	-7.5%[38.3 µM]
Cc1ccc(NC(=O)C2CC=CCC2C(=O)N2CCCCC2)cc1 (centres undefined)	18%	-2	?	1.4	3	4	-2.6%
Cc1ccc(CSc2nc3ccccc3cc2C=O)cc1	-12%	8	4	-0.9	12	4	4.9%
CC(=O)Nc1ccc(NC(=O)C/C(C)=N/NC(=O)C(=O)Nc2ccc(C)c(Cl)c2)cc1	5%	-4	-2	-3.0	-9	59	2.9%
Cc1ccc(CNC(=O)C2C3C=CC4(CN(Cc5cccnc5)C(=O)C24)O3)cc1 (centres undefined)	11%	-8	?	-3.2	2	3	0.5%
Cc1cc(NC(=O)/C=C/c2ccco2)ccc1NC(=O)c1ccccc1	13µM*	-4	14	0.8	1	-15	-0.8%
O=C(CCSCc1ccc(Cl)cc1)NCCC1=CCCCC1	2%	-11	-8	0.4	17	-1	-0.9%
COc1ccc(/C=N/NC(=O)c2ccc3c(c2)OCO3)c(C(=O)O)c1OC	1%	-18	-8	-1.3	-1	6	0.9%
Cc1nc2ccccc2c(=O)n1NC(=O)C1CCC(C(C)(C)C)CC1 (centres undefined)	19%	-3	3	-3.1	-2	8	14%
CC1=NN(C(=O)c2ccc(Br)cc2)C(O)(c2ccccc2)C1 (centres undefined)	-2%	-8	17	-8.8	-3	1	-1.8%
O=C1C(Nc2ccccc2)=C/C(=N/S(=O)(=O)c2cccs2)c2ccccc21	?	-2	8	-4.5	?	-86*	-0.7%
COc1ccc(C(=O)CSc2nnc(-c3ccc(S(=O)(=O)N4CCOCC4)cc3)o2)cc1	17%	-8	3	-3.5	3	-3	.
O=C(C[C@H]1C[C@H](C(=O)N2CCOCC2)[C@@]2(CCC3CCCC3)c3[nH]c4ccc(Cl)cc4c3CCN2C1=O)NCc1ccco1	.	-9	.	-3.6	-5	-1	-0.9%
C[C@H]1CN([C@@H](C)CO)C(=O)c2cccc(NC(=O)c3ccc(-c4nccs4)cc3)c2O[C@@H]1CN(C)C(=O)Nc1cccc2ccccc12	.	6	.	3.5	-16	-20	10%
CCC(C)(C)C1CCC(=NNC(=O)c2ccc(Br)o2)CC1 (centres undefined)	1%	-22	-21	-3.3	-1	-1	0.5%
CCCCOC(=O)Nc1ccc(C)c(Cl)c1	10%	-6	-19	-1.5	21	24	17%
CCOC1=C2[C@@H](CN(S(=O)(=O)c3ccc(C)cc3)[C@H]2c2cccc3ccccc23)[C@H]2C(=O)N(C)C(=O)[C@H]2C1	.	-5	.	-2.7	-5	-13	-1.0%
O=C(c1cc(F)ccc1F)C1CCCN(C(=O)CSc2ccccn2)C1 (centres undefined)	6%	-6	-4	5.6	.	2	0.1%
N#CC1(c2ccccc2)CCC(=NNS(=O)(=O)c2ccccc2)CC1 (centres undefined)	.	-5	9	4.6	19	11	-0.4%
O=C(COC(=O)c1ccc(Cl)c(S(=O)(=O)N2CCCC2)c1)NCc1cccs1	6%	-2	-12	3.2	-17	2	1.8%
Cc1ccc(NC(=O)CC2SC(=O)N(c3ccccc3)C2=O)cc1 (centres undefined)	20µM*	-15	-7	-5.9	2	4	2.1%
COc1ccc2cc1Oc1ccc(cc1)C[C@H]1c3c(cc(OC)c4c3Oc3c(ccc5c3[C@H](C2)N(C)CC5)O4)CCN1C	.	-15	.	-3.2	-4	-5	-0.5%
CNC(=S)NNC(=O)Cc1ccc(OC)c(OC)c1	0%	-3	-1	-0.3	0	7	0.3%
Cc1ccc(C(=O)N2CCCc3ccccc32)c(F)c1F	10%	-1	-23	-0.8	.	12	-0.4%
COc1ccccc1C(=O)Nc1ccc(-c2nnc(SCC(=O)O)n2C)cc1	7%	-15	-28	-2.4	-17	-5	-0.2%
COC(=O)[C@@H]1C(c2ccccc2)(c2ccccc2)[C@@]1(C)C(=O)OC	3%	-24	?	-0.1	3	2	-1.2%
Cc1csc2nc3cc(C(N)=O)ccc3c(=O)n12	1%	-9	-16	1.6	?	?	0.3%
Cc1ccc(NC(=O)COC(=O)C2CCC(=O)N2)c(S(=O)(=O)N2CCOCC2)c1 (centres undefined)	4%	4	-1	-1.8	-1	8	0.1%

In the list so far, nine have four or more nitrogen atoms.
structure	Sfp PPTase inh	D2 potentiator	TRPV1 potentiator	D2 agonist	CtBP-E1A blk	Six1-Eya2 blk	PINK1 expr mod
Cc1cc(C)n(-c2nc3c(c(=O)[nH]c(=O)n3C)n2CC(O)COc2ccc(Cl)cc2Cl)n1 (centres undefined)	6%	-18	-6	1.2	-11	5	4.1%
COc1ccc2c(C)cc(SCn3nnc4ccccc4c3=O)nc2c1	13%	-12	0	2.1	2	-2	0.7%
O=C(NCc1cccnc1)c1cnc2ccccc2n1	11%	-4	2	-4.2	-1	8	-0.8%
C/C(=N\NC(=O)c1nnn(-c2nonc2N)c1C(C)C)c1ccncc1	8%	-11	12	3.5	3	1	-0.1%
Cc1ccc2cc3c(NC(=O)CC(C)C)nn(C)c3nc2c1	1%	-18	-7	-0.1	1	-4	0.1%
CC(=O)Nc1ccc(NC(=O)C/C(C)=N/NC(=O)C(=O)Nc2ccc(C)c(Cl)c2)cc1	5%	-4	-2	-3.0	-9	59	2.9%
O=C(C[C@H]1C[C@H](C(=O)N2CCOCC2)[C@@]2(CCC3CCCC3)c3[nH]c4ccc(Cl)cc4c3CCN2C1=O)NCc1ccco1	.	-9	.	-3.6	-5	-1	-0.9%
C[C@H]1CN([C@@H](C)CO)C(=O)c2cccc(NC(=O)c3ccc(-c4nccs4)cc3)c2O[C@@H]1CN(C)C(=O)Nc1cccc2ccccc12	.	6	.	3.5	-16	-20	10%
COc1ccccc1C(=O)Nc1ccc(-c2nnc(SCC(=O)O)n2C)cc1	7%	-15	-28	-2.4	-17	-5	-0.2%
